Yeast UUG start: yeast start codon fidelity modulation; S. cerevisiae UUG-firefly luciferase reporter, luminescence/redox ratio; AID 602363; 0.13% of 350,000 active; activity score, % at 18.7 µM;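 active = replicate mean at a twofold rise or more, about +100% in these data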;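 also: firefly luciferase made from a UUG start codon reports start codon fidelity; reporter light over untreated wells divided by growth signal over untreated wells; some hits fall short of that in this replicate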
Rce1 inhib: inhibitors of yeast Ras-converting enzyme; 0.27% of 290,000 active; calls only; AID 2563; yeast membranes, quenched prenylated peptide cleavage fluorescence;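 active = fall in fluorescence gain of 50% or more versus controls, with final raw signal at or below 3038400; inconclusive = same 50% fall but final raw signal above 3038400; inactive = fall in fluorescence gain under 50%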;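 also: plate controls were neutral control wells for no effect and wells lacking membranes for full effect; tested at 10 µM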
HIV Env fusion: inhibitors of HIV Env-mediated cell fusion; HeLa-JRFL Env/CEM21 cell fusion, luciferase; inhibition, % at 12.3 µM; 1.1% of 360,000 active;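 active = mean replicate inhibition score of at least 50 and every replicate individually at or above 50; inconclusive = only one of the two criteria met; inactive = mean below 50 and not all replicates reaching 50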;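 also: 0% = plate neutral controls and 100% = maraviroc near 300 nM; one replicate is shown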
CSC inhib: cancer stem cell inhibition; cancer stem cell-like cells viability, luminescence; inhibition, % at 7.5 µM; 1.1% of 300,000 active;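 active = mean at 75% or more and at least half the replicates too; inconclusive = mean and replicates disagree; tested in HMLE shEcad cells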;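 also: 0% = median of negative and 100% = median of positive control wells; the first replicate is given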
MT1-MMP act inh: inhibitors of human MT1-MMP activation; GFP/RFP ratio change, % at 20 µM; P50281; 0.061% of 360,000 active; HT1080 RFP-PRO-GFP cells, GFP/RFP ratio fluorescence, overnight; percent of plate control window, DMSO zero; AID 651647;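 active = GFP/RFP ratio change of at least 30% with cell ATP level not reduced by more than half and red fluorescence within 50% of control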; also: strong numbers were not always called active
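Assay system: RFP-PRO-GFP reporter HT1080 cells; read-out basis: GFP/RFP fluorescence ratio; benchmarks: DMSO wells and RFP-L50D-GFP cells; doses: 20 µM single dose, 1% DMSO; schedule: overnight cell settling, then overnight compound exposure, 37 °C, 5% CO2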
PABP FP inh: PABP-poly(A) binding inhibition; P11940; 1% of 290,000 active; inhibition, % at 35 µM; PABP-poly(A) RNA binding, fluorescence polarization;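 active = 50% or more with normal probe brightness, or confirmed in later tests; inconclusive = above 50% with abnormal brightness, or retests that disagree; inactive = below 50% or failed in later tests; about a fifth of its hits are not listed in these tables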;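 also: calls also rest on retests at 20 µM and on dose response follow-up; controls were probe without protein and protein plus probe with vehicle; some compounds called inactive have numbers as strong as hits; many hits fall short of the cut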
Target sequence (P11940 whole entry, looked up): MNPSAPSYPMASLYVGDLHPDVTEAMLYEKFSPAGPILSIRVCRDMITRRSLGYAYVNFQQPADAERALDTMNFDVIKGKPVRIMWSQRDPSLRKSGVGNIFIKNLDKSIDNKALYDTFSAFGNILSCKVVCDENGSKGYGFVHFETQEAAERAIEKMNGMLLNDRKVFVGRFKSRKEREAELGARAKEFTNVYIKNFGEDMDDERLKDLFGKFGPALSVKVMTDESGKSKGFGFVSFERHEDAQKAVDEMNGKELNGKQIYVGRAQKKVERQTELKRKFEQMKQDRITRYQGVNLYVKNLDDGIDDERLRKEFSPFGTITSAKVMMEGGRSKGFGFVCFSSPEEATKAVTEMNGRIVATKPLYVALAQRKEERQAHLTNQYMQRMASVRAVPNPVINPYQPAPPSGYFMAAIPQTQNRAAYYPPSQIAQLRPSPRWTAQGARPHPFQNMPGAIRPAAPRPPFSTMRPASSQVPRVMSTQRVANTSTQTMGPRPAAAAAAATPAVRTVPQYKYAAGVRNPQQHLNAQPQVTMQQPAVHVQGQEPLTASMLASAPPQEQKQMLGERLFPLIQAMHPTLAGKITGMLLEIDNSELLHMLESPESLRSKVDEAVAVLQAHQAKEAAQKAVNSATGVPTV
eIF4H FP inh: inhibitors of RNA binding by human eIF4H | Q15056 | eIF4H fluorescence polarization binding assay | inhibition, % at 35 µM | 0.94% of 290,000 active | AID 2012;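 active = 50% or more with normal probe brightness, or confirmed in later tests; inconclusive = above 50% with abnormal brightness, or retests that disagree; inactive = below 50% or failed in later tests; about a fifth of its hits are not listed in these tables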;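 also: calls also rest on retests at 20 µM and on dose response follow-up; 0% = protein and probe with vehicle and 100% = probe without protein; strong numbers were not always called active; many hits fall short of the cut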
eIF4H FP inh retest: further read-out of eIF4H FP inh, marked with its call; inhibition, %; compound at 20 µM; confirmation average;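 mean of two retest wells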
PABP FP inh retest: also measured in PABP FP inh; calls as there; inhibition, %; compound at 20 µM; confirmation repeats;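 mean of two retest wells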
MT1-MMP act inh RFP: second read-out of MT1-MMP act inh, no call of its own (marks repeat the call); RFP signal change, %; measured here: RFP expression control read;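 0 = vehicle wells; hits needed this value within 50% of zero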
An asterisk follows results filed as active; i = inactive; ? = inconclusive; . = no result given; & = joins results of further samples. Only part of the results is shown (hit frequency here may not be typical).

SMILES	Yeast UUG start	Rce1 inhib	HIV Env fusion	CSC inhib	MT1-MMP act inh	MT1-MMP act inh RFP	PABP FP inh	eIF4H FP inh	others
CCN(CC)c1nc2c(C)cccn2c(=O)c1C=C1C(=O)NC(=O)NC1=O	.	i	-27	-21	-5	-1	-5	59	eIF4H FP inh retest=31;PABP FP inh retest=16
CSc1ncc(/C=C2/C(=O)NC(=O)N(c3ccc(C)cc3)C2=O)cn1	.	i	-2	2	8	5	1	-9
CCCCc1nc(N2CCNCC2)c(C#N)c2c1CSC(C)(C)C2	-25	.	-37	-6	-13	-9	-7	-9
Cc1cc(C)cc(-n2c(O)c(C=Nc3ccc(N4CCOCC4)cc3)c(=O)[nH]c2=S)c1	.	i	-25	11	5	9	0	?
COc1cc(C=C2C(=O)NC(=O)NC2=O)cc(OC)c1OC	-18	i	3	-4	-3	-2	5	-12
CS(=O)(=O)NNP(=O)(NNS(C)(=O)=O)NC(=O)c1ccccc1	-11	i	-31	5	-3	6	2	2
Cc1c(C(=O)C(=O)N2CCC3(CC2)OCCO3)c2ccccc2n1C	0	i	-12	7	2	0	17	11
N#CC1=C(N)Oc2c(c(=O)oc3ccccc23)C1c1ccc(OC(=O)N2CCOCC2)cc1 (configuration not stated)	.	i	-3	-4	-3	-3	.	.
CC(N=Cc1c(O)[nH]c(=O)[nH]c1=O)c1ccccc1 (configuration not stated)	-15	i	-65	-4	6	5	1	-4
CCC(=NCCN1CCCCC1)c1c(O)n(C)c(=O)n(C)c1=O	-6	i	.	.	1	11	30	25
Fc1ccc(CCNCc2ccc(Br)cc2)cc1	-6	i	11	24	4	4	-1	2
O=C(CN1CCN(c2ccccc2F)CC1)Nc1cccnc1Cl	.	i	16	-9	-1	0	5	-4
CCOC(=O)C1C(=O)N(C)C2(C)CC1c1cc(OC)ccc1O2 (configuration not stated)	14	i	-53	-6	3	-11	0	5
O=C(Nc1ccccc1Cl)OC1CN2CCC1CC2 (configuration not stated)	.	.	3	-13	-1	2	0	11
Cc1cc(OCC(=O)NCc2ccncc2)c2c3c(c(=O)oc2c1)CCCC3	-3	i	5	6	3	-5	-6	-15
CCN(CC)C(=O)c1ccc(NC(=O)C2=C(C)OCCS2)cc1	-8	i	3	-5	-1	-1	-8	-4
COC(=O)C1=C(c2cccc(OCc3ccccc3)c2)C[C@@H]2CC[C@H]1N2C(=O)NCc1ccc(F)cc1	-13	.	-4	18	0	-4	.	.
O=C1NC(=O)N(CCc2ccc(F)cc2)C(=O)/C1=C/C=C/c1ccccc1	-8	i	11	90*	-19	-22	-13	4
CCCCCCn1c(O)c(C=NCCN2CCCCC2)c(=O)[nH]c1=O	.	i	.	-33	0	2	-7	-7
CC(=O)NC(Cc1ccc(N(CCCl)CCCl)cc1)C(=O)NC(CC(C)C)C(=O)O (configuration not stated)	.	i	4	12	-2	4	14	1
Cc1ccsc1C(=O)C1CCCN(Cc2sc(N(C)C)nc2Cl)C1 (configuration not stated)	-3	i	36	14	1	-1	-1	10
O=[N+]([O-])c1cc(O)c(O)c([N+](=O)[O-])c1	1	.	-7	3	9	7	.	.
O=C(C[N+]12CCC(CC1)C(CO)C2)c1ccc([N+](=O)[O-])cc1 (configuration not stated)	.	i	-14	-16	-3	-5	-14	-7
O=C1NC(=O)N(c2ccccc2)C(=O)/C1=C\C=C\c1ccccc1	-8	.	-77	60	0	-2	28	47
COC(=O)C1=C(c2ccc(-c3ccccc3)c(F)c2)C[C@@H]2CC[C@H]1N2C(=O)NC(C)C	-13	.	26	0	-1	-21	.	.

New compounds follow:
SMILES	Yeast UUG start	Rce1 inhib	HIV Env fusion	CSC inhib	MT1-MMP act inh	MT1-MMP act inh RFP	PABP FP inh	eIF4H FP inh	others
OC(Cn1c2ccccc2c2ccccc21)C[n+]1ccccc1 (configuration not stated)	-24	i	-51	4	-1	0	-3	-2
CC(C)CN1CCN(Cc2cccc3c2OCO3)CC1CCO (configuration not stated)	.	i	-6	-8	0	3	1	2
CN1CC=C2C(C#N)=C(N)C(C#N)(C#N)C(c3ccncc3)C2C1 (configuration not stated)	0	i	.	0	-34	7	116*	122*	eIF4H FP inh retest=72*;PABP FP inh retest=86*
OCC#CC[N+]1(CC#Cc2ccccc2)CCCC1	-8	i	-1	-5	2	5	0	-9
CC/C(=N\Nc1ccccc1)c1c(O)[nH]c(=O)[nH]c1=O	-6	i	-142	68	0	1	2	5
O=C(C1CCCO1)N1CCC2(CC1)OCCO2 (configuration not stated)	-17	i	7	-2	-6	0	4	-5
Cc1nn(CC(C)C)c(Cl)c1C(=O)O	.	i	-5	-22	-3	-7	-23	4
C=CCNC(=S)/N=C/c1c(O)[nH]c(=O)[nH]c1=O	.	.	-13	-3	-4	0	?	?
Cc1nn(Cc2ccccc2Cl)c(Cl)c1C(=O)OCC(=O)NCc1ccco1	-13	i	.	-4	2	-3	4	3
CC1CCC(N2CCN(C(=O)COc3ccccc3)CC2)CC1 (configuration not stated)	-24	.	-1	-4	2	1	19	11
O=[N+]([O-])c1cc([As](=O)(O)c2ccc(O)c([N+](=O)[O-])c2)ccc1O	15	i	7	-2	-1	1	-6	2
COCCOC(=O)c1c(N)n(Cc2ccco2)c2nc3ccccc3nc12	-18	i	.	-14	-49	8	-14	?
CCOC(=O)c1ccc2c(c1)n(Cc1ccccc1)c(C)[n+]2CC	-14	i	-3	3	1	-9	-10	-8
O=C(c1cc(C(=O)NCc2ccccc2)c(=O)n(Cc2ccccc2)c1)c1cc(Cl)ccc1O	.	i	31	49	-3	-6	-2	35
CCC1(CCCC(=O)c2ccc(F)cc2)C(=O)NC(=S)NC1=O	-19	i	20	0	3	1	6	9
CCC(C)n1c(O)c(/C=N/Nc2nc3c(c(=O)n(C)c(=O)n3C)n2C)c(=O)[nH]c1=S (configuration not stated)	.	i	4	-1	4	10	-12	22
Cn1cc(C(=O)c2ccccc2)c2ccccc21	-13	i	-55	-10	-2	-1	5	-8
COC(=O)C1=C(c2ccc(OC)c(OC)c2)C[C@@H]2CC[C@H]1N2C(=O)NC1Cc2ccccc2C1	-12	.	-13	1	4	-6	.	.
Cc1ccc(C(=O)N[C@@H](C)CN2C3=NC[C@H](Cc4ccccc4)N3C[C@H]2Cc2ccc(O)cc2)cc1Br	.	i	.	30	.	.	-21	-12
COC(=O)C1=C(c2ccccc2)C[C@@H]2CC[C@H]1N2C(=O)NCc1ccccc1	3	i	15	-10	1	2	.	.
COc1ccc(CN2Cc3cc(N4CCOCC4)ccc3-n3nncc3C2)cc1	-6	.	0	.	1	6	.	.
COCCOC(=O)C1=C(N)OC(C)=C(C(=O)OC)C12C(=O)Nc1ccccc12 (configuration not stated)	-9	i	.	-1	-3	1	-3	-7
CCNc1cc(N2CCN(C)CC2)ccc1[N+](=O)[O-]	6	i	2	8	3	3	-13	-6
COC(=O)C1=C(c2cc3ccccc3o2)C[C@@H]2CC[C@H]1N2C(=O)N1CCC(C)CC1	-9	i	33	5	-6	-18	.	.
COc1cc(C)c(CN2CCN(c3ccccc3)CC2)cc1C	2	i	-14	-6	3	1	3	-6

(further entries)
SMILES	Yeast UUG start	Rce1 inhib	HIV Env fusion	CSC inhib	MT1-MMP act inh	MT1-MMP act inh RFP	PABP FP inh	eIF4H FP inh	others
CN(CCc1nnc(N)s1)[N+](=O)[O-]	.	i	11	-1	2	-1	15	0
OC1/C(=C/c2ccccc2C(F)(F)F)N2CCC1CC2 (configuration not stated)	.	i	-1	0	1	4	3	-6
COc1ccc2c(c1)C13CCCC[C@@H]1C(C2)N(C)CC3 (some centres not stated)	-11	i	0	1	-14	-6	-1	-15
CC(C)N(CCC(C(N)=O)(c1ccccc1)c1ccccn1)C(C)C (configuration not stated)	-9&-25	i	0&12	6	0&3	1&5	6	-5
CC(C)(C)C(=O)NC1CCSC1=O (configuration not stated)	.	i	-9	-2	.	.	-2	3
O=[N+]([O-])/C(Cl)=C1\NCCN1Cc1ccc(Cl)nc1	.	i	6	-10	2	2	12	5
Cc1cc(OCC(=O)N2CCC(C(=O)O)CC2)c2c3c(c(=O)oc2c1)CCCC3	-2	.	.	-8	4	-2	10	-7
CC(C)[C@H]1C(=O)O[C@H](C(C)C)C(=O)N(C)[C@@H](C(C)C)C(=O)O[C@H](C(C)C)C(=O)N(C)[C@@H](C(C)C)C(=O)O[C@H](C(C)C)C(=O)N1C	12	i	.	-7	0	-36	10	1
CN1C(=O)/C(=C/c2ccc(N3CCCCCC3)o2)C(=O)NC1=S	-22	i	-125	-9	-132	30	?	?
COC(=O)C1=C(c2ccc(F)cc2F)C[C@@H]2CC[C@H]1N2C(=O)NCc1ccc2c(c1)OCO2	-4	.	.	10	-1	2	.	.

Compounds shown so far that contain a cyano group, in the order listed:
SMILES	Yeast UUG start	Rce1 inhib	HIV Env fusion	CSC inhib	MT1-MMP act inh	MT1-MMP act inh RFP	PABP FP inh	eIF4H FP inh	others
CCCCc1nc(N2CCNCC2)c(C#N)c2c1CSC(C)(C)C2	-25	.	-37	-6	-13	-9	-7	-9
N#CC1=C(N)Oc2c(c(=O)oc3ccccc23)C1c1ccc(OC(=O)N2CCOCC2)cc1 (configuration not stated)	.	i	-3	-4	-3	-3	.	.
CN1CC=C2C(C#N)=C(N)C(C#N)(C#N)C(c3ccncc3)C2C1 (configuration not stated)	0	i	.	0	-34	7	116*	122*	eIF4H FP inh retest=72*;PABP FP inh retest=86*

Reprinted at random: 6 records from the list, in no set order.
SMILES	Yeast UUG start	Rce1 inhib	HIV Env fusion	CSC inhib	MT1-MMP act inh	MT1-MMP act inh RFP	PABP FP inh	eIF4H FP inh	others
Cc1cc(OCC(=O)N2CCC(C(=O)O)CC2)c2c3c(c(=O)oc2c1)CCCC3	-2	.	.	-8	4	-2	10	-7
CN(CCc1nnc(N)s1)[N+](=O)[O-]	.	i	11	-1	2	-1	15	0
COC(=O)C1=C(c2ccc(F)cc2F)C[C@@H]2CC[C@H]1N2C(=O)NCc1ccc2c(c1)OCO2	-4	.	.	10	-1	2	.	.
CC(C)[C@H]1C(=O)O[C@H](C(C)C)C(=O)N(C)[C@@H](C(C)C)C(=O)O[C@H](C(C)C)C(=O)N(C)[C@@H](C(C)C)C(=O)O[C@H](C(C)C)C(=O)N1C	12	i	.	-7	0	-36	10	1
CC(C)N(CCC(C(N)=O)(c1ccccc1)c1ccccn1)C(C)C (configuration not stated)	-9&-25	i	0&12	6	0&3	1&5	6	-5
CC(C)(C)C(=O)NC1CCSC1=O (configuration not stated)	.	i	-9	-2	.	.	-2	3

High-throughput results deposited in PubChem by several laboratories.
